Screening results from PubChem.
Mtb growth = Mycobacterium tuberculosis H37Rv growth inhibition, putative kinase inhibitor library, confirmatory dose response (AID 2842); M. tuberculosis H37Rv growth inhibition; higher % means a stronger effect; some inactives read as strong as hits; inhibition, % at 10 µg/mL, or IC90 in µg/mL where a hit was titrated; 24,000 tested, 5.2% active;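 active = confirmed in a dose series; about a fifth of its hits are not listed in these tables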;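 also: bacteria incubated one week before Alamar blue readout; 0% = bacteria only wells and 100% = bacteria with high antibiotic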
Numbers without * were called inactive. Only part of the results is shown, so the mix of outcomes need not match the whole.

SMILES | Mtb growth
CC(Sc1nc2ccccc2s1)C(=O)Nc1nnc(-c2ccccc2)s1 (stereo unspecified) | 7.0%
Cc1nc(SCC(=O)c2ccc(Cl)s2)c2c(C)c(C)sc2n1 | -2.9%
Nc1nc(SCc2ccc([N+](=O)[O-])cc2)[nH]c(=O)c1NC(=O)c1ccco1 | 2.9%
CCN1CCN(C(c2cccc(OC)c2)c2sc3ncnn3c2O)CC1 (stereo unspecified) | -1.6%
COc1ccc(/C=C/C(=O)O)cc1S(=O)(=O)NCCc1ccc(S(N)(=O)=O)cc1 | -8.8%
Cc1ccccc1NC(=O)CN1N=NC2C(=O)N(c3ccc(F)cc3)C(=O)C21 (stereo unspecified) | -3.1%
CCOc1ccc(N=C2NC(=O)C(CC(=O)NC(N)=O)S2)cc1 (stereo unspecified) | -14.9%
CC1CCN(CCCNC(=O)CCCc2nnc3c(=O)n(-c4ccc(Cl)cc4)ccn23)CC1 | -4.1%
COc1ccccc1Cn1cc(C(=O)c2ccc(C)c(C)c2)c(=O)c2cc(OC)c(OC)cc21 | 13.1%
CCN(CC)CCNC(CC(=O)Nc1cccc([N+](=O)[O-])c1)C(=O)O (stereo unspecified) | 4.7%
COc1cc(NC(=O)N2CCn3cccc3C2c2ccc(F)c(F)c2)cc(OC)c1OC (stereo unspecified) | -2.4%
CCCC(=O)Nc1c(C(=O)Nc2ccc(C)cc2)oc2ccccc12 | 10.3%
O=C(Nc1ccc2c(c1)C(=O)NC2=O)c1ccc(Cl)cc1 | -13.1%
Cc1ccc(C(=O)Nc2ccc3c(c2)C(=O)NC3=O)cc1C | 0.8%
O=C(Nc1nncs1)C1CCN(S(=O)(=O)c2ccc(Cl)cc2)CC1 | -4.2%
Cc1ccc(C)c(NC(=O)c2ccc(S(=O)(=O)N3CCCCC3C)cc2)c1 (stereo unspecified) | 4.7%
O=c1[nH]c(=O)n(Cc2ccccc2)c2c1CN(c1ccc(F)cc1)CN2 | 3.8%
COc1ccc(OC)c(-c2cc(-c3ccc(C)cc3)c(C#N)c(N)n2)c1 | -2.3%
Cc1onc(-c2ccccc2Cl)c1C(=O)Nc1c(C(=O)Nc2ccccc2F)oc2ccccc12 | -6.8%
COc1ccc(C(=O)Cn2cnc3c(nnn3-c3cc(C)cc(C)c3)c2=O)cc1 | 1.0%
O=C(CCN1C(=O)c2ccccc2S1(=O)=O)Nc1ccc(F)cc1F | -17.2%
N#C/C(=C\Nc1ccc2c(c1)OCO2)c1nc(-c2ccc([N+](=O)[O-])cc2)cs1 | 28.6%
COc1ccc(Cl)c2sc(N3CCN(C(=O)c4nc5ccccc5s4)CC3)nc12 | -16.4%
O=C(CSc1nc2c(c(=O)n1-c1ccc(Cl)cc1)SCC2)Nc1cccc(Cl)c1 | 8.8%
COC(=O)c1ccccc1NC(=O)CC1Nc2cc(C)c(C)cc2NC1=O (stereo unspecified) | -15.3%
Cc1cccc(-c2nnc(NC(=O)c3ccc(N4C(=O)CCC4=O)cc3)s2)c1 | 2.3%
CCOc1ccc(N2CC(NC(=O)Nc3nc4ccccc4s3)CC2=O)cc1 (stereo unspecified) | 12.3%
CC1=NN(Cc2ccccc2)c2nc3c(c(=O)n(C)c(=O)n3C)n2C1 | -13.7%
CSc1nc2ccc3nc(Nc4nc5c(F)cc(F)cc5s4)sc3c2s1 | -0.7%
O=C1NC(=O)c2cc(NC(=O)c3c(F)cccc3F)ccc21 | -2.2%
Cc1ccc(-n2nc3c(c2NC(=O)COc2ccc4ccccc4c2)CSC3)c(C)c1 | -1.9%
CCOC(=O)c1nn(-c2ccc(F)cc2)c(=O)c2c(NC(=O)Cc3cccc(C)c3)scc12 | -8.2%
Cc1ccccc1NS(=O)(=O)c1ccc2[nH]c(=O)[nH]c2c1 | 7.7%
COc1ccc(C(=O)Nc2c(N)nc(SCC(=O)Nc3cccc(C(F)(F)F)c3)[nH]c2=O)cc1OC | -3.2%
O=[N+]([O-])c1ccc(NNC(=S)NC2CCS(=O)(=O)C2)c([N+](=O)[O-])c1 (stereo unspecified) | -2.1%
CCOC(=O)CCC(=O)Nc1c(C(=O)Nc2ccccc2)oc2ccccc12 | -4.3%
CC1=C(C(=O)Nc2cccc(Cl)c2)C(c2ccc(C)cc2)NC(=O)N1 (stereo unspecified) | 38.6%
O=C(CN1C(=O)CCC1=O)Nc1nnc(-c2ccc3c(c2)CCCC3)o1 | 27.6µg/mL*
COc1ccccc1NC(=O)CN1N=NC2C(=O)N(c3ccc(F)c(F)c3)C(=O)C21 (stereo unspecified) | -6.0%
COc1cccc(-c2nc3c(c(=O)[nH]2)Cc2cc(Cl)ccc2O3)c1OC | -2.5%
CCN1C(=O)c2cccc3c(S(=O)(=O)Nc4cccc(F)c4)ccc1c23 | 0.5%
O=c1cc(N2CCN(c3ccccc3F)CC2)[nH]c(=O)n1-c1ccc(Cl)cc1 | -7.4%
Cc1ccc(N=C2NC(=O)/C(=C\c3ccc(O)cc3)S2)cc1C | 9.3%
COc1ccccc1NC(=O)c1oc2ccccc2c1NC(=O)c1ccccc1OC | 5.0%
O=C(Nc1c(C(=O)Nc2ccc([N+](=O)[O-])cc2)oc2ccccc12)c1cc(Cl)ccc1Cl | 0.6%
Oc1ccc(Nc2nc(NCc3ccccc3)c3ccccc3n2)cc1 | 2.59µg/mL*
COc1ccc(C(=O)Nc2ccc(-c3ccc4nnc(C)n4n3)cc2)cc1OC | 0.1%
Cn1c(=O)[nH]c(=O)c2c1nc(SCc1ccc(Cl)cc1)n2CCc1ccccc1 | 12.8%

6 of the compounds above, in CSV form.
SMILES,Mtb growth
O=C(CN1C(=O)CCC1=O)Nc1nnc(-c2ccc3c(c2)CCCC3)o1,27.6µg/mL*
COc1ccccc1NC(=O)CN1N=NC2C(=O)N(c3ccc(F)c(F)c3)C(=O)C21 (stereo unspecified),-6.0%
COc1cccc(-c2nc3c(c(=O)[nH]2)Cc2cc(Cl)ccc2O3)c1OC,-2.5%
CCN1C(=O)c2cccc3c(S(=O)(=O)Nc4cccc(F)c4)ccc1c23,0.5%
O=c1cc(N2CCN(c3ccccc3F)CC2)[nH]c(=O)n1-c1ccc(Cl)cc1,-7.4%
Cc1ccc(N=C2NC(=O)/C(=C\c3ccc(O)cc3)S2)cc1C,9.3%

Next section
SMILES | Mtb growth
Cc1cc(=O)[nH]c2ccc(S(=O)(=O)NC3CCCCC3)cc12 | -2.2%
CCOc1ccc2c(c1)c(=O)c(S(=O)(=O)c1ccc(Cl)cc1)cn2Cc1ccc(OC)cc1 | 6.4%
Cc1cccc(NC(=O)CN2N=NC3C(=O)N(c4ccc(F)c(Cl)c4)C(=O)C32)c1C (stereo unspecified) | 6.3%
COc1cccc(NC(=O)CSc2nc(N)c(NC(=O)c3ccco3)c(=O)[nH]2)c1 | -8.0%
Cn1c(=O)c2c(SCc3cccc(F)c3)nc(-c3cccs3)nc2n(C)c1=O | -3.0%
CNC(=O)NC1CC(=O)N(c2ccc(C)c(C)c2)C1 (stereo unspecified) | 2.7%
O=C(CSc1ccc2nnc(-c3ccccn3)n2n1)N1CCOCC1 | -7.9%
Cc1ccc(-c2csc(NC(=O)c3ccc(S(=O)(=O)N4CCc5ccccc54)cc3)n2)cc1 | -10.4%
CCCc1nc(SCC(=O)Nc2ccc(Br)cc2)c2c(=O)n(C)c(=O)n(C)c2n1 | -1.2%
COc1ccc(C(=O)Nc2c(C(=O)Nc3ccc4c(c3)OCO4)oc3ccccc23)cc1 | 0.4%
Cc1cc(=O)oc2cc(OCC(=O)Nc3cccc(Cl)c3Cl)ccc12 | -9.8%
N#CCn1ccn(-c2ccc3c(c2)OCO3)c(=O)c1=O | 10.7%
O=C(CNc1ccccc1)Nc1ncc(Cc2ccccc2Cl)s1 | -9.6%
C=Cc1ccc(CSC2=NS(=O)(=O)c3ccccc3N2)cc1 | -6.2%
CC(=O)Nc1nnc(-c2ccc(Cl)cc2Cl)s1 | 4.2%
O=C(Cc1n[nH]c(=O)[nH]c1=O)N/N=C/c1cccc(Cl)c1 | -14.4%
CCOC(=O)CNC(=O)CSc1nc2c([nH]c3ccccc32)c(=O)n1CC | -2.9%
COc1cccc(NC(=O)C(=O)NCCC2CCCCN2S(=O)(=O)c2ccc(F)c(C)c2)c1 (stereo unspecified) | -9.3%
O=C(Cc1cccs1)Nc1nnc(C23CC4CC(CC(C4)C2)C3)s1 | -9.3%
Cc1cc(C)c(-c2nnc(NC(=O)c3ccc(-c4ccccc4)cc3)s2)c(C)c1 | 4.3%
CC(=O)c1ccc(C(=O)Nc2ccc3c(c2)C(=O)NC3=O)cc1 | -1.7%
Cc1cc(-c2ccc(NC(=O)c3ccccc3Cl)c(C)c2)ccc1NC(=O)c1ccccc1Cl | -11.5%
COc1ccc(NC(=O)Cn2cnc3c(cnn3-c3ccc(F)cc3)c2=O)c(OC)c1 | 2.0%
CCc1nc(SCC(=O)N2CCC(Cc3ccccc3)CC2)c2c(=O)n(C)c(=O)n(C)c2n1 | -3.9%
CC(C)(C)n1nc2c(c1NC(=O)Cc1ccc(F)cc1)CSC2 | -0.3%
O=C(O)c1ccc(-n2[nH]c(=O)c3nccnc3c2=O)cc1 | -7.9%
CCOc1ccc(NCc2ccc(O)c3ncccc23)cc1 | 69.3%
CC(C)(C)c1cc(O)c2oc(=O)c(-c3nc4ccc(C(=O)O)cc4[nH]3)cc2c1 | 8.6%
CCCCCn1c(SCCN2CCOCC2)nc2c1c(=O)[nH]c(=O)n2C | 18.7%
CC(C)C(=O)Nc1sc2c(c1C#N)CCN(C(C)C)C2 | -7.2%
COc1cc(OC)cc(C(=O)Nc2nc(CC(=O)NCc3ccncc3)cs2)c1 | -3.9%
O=C(CSC1=NS(=O)(=O)c2cc(F)ccc2N1)Nc1cccc(C(F)(F)F)c1 | -9.2%
Fc1cccc2sc(Nc3nnc(-c4ccco4)o3)nc12 | 2.08µg/mL*
CCN1CCc2c(sc(NC(=O)c3cc(Cl)ccc3Cl)c2C(N)=O)C1 | 3.3%
CC(=O)c1ccc(C(=O)Nc2nc(-c3ccc(Br)cc3)cs2)cc1 | 9.6%
O=C(Nc1ccc2c(c1)C(=O)NC2=O)c1ccc(C(=O)c2ccccc2)cc1 | -10.8%

Entries listed so far that contain a cyano group (four):
SMILES | Mtb growth
COc1ccc(OC)c(-c2cc(-c3ccc(C)cc3)c(C#N)c(N)n2)c1 | -2.3%
N#C/C(=C\Nc1ccc2c(c1)OCO2)c1nc(-c2ccc([N+](=O)[O-])cc2)cs1 | 28.6%
N#CCn1ccn(-c2ccc3c(c2)OCO3)c(=O)c1=O | 10.7%
CC(C)C(=O)Nc1sc2c(c1C#N)CCN(C(C)C)C2 | -7.2%

Next records follow.
SMILES | Mtb growth
CCC(C)NC(=O)c1cc2cc([N+](=O)[O-])ccc2oc1=O (stereo unspecified) | 18.6%
CCOC(=O)c1ccc(NC(=O)CSc2ncnc3c2nnn3-c2ccc(OC)cc2)cc1 | 3.1%
Cc1c(C)n2c(SCc3ccccc3Cl)nnc2[nH]c1=O | -9.6%
O=C(CSc1nc2[nH]ncc2c(=O)n1-c1ccccc1)Nc1ccc(Cl)cc1Cl | 46.0%
Cc1ccccc1NS(=O)(=O)c1cc2c3c(c1)CCN3C(=O)CC2 | -9.3%
Cc1nnc(SCC(=O)Nc2ccc(OC(F)F)cc2)[nH]c1=O | 13.9%
Cc1ccc(Nc2nc(N3CCN(c4cccc(Cl)c4)CC3)nc3nccnc23)cc1C | -2.3%
CCOC(=O)C(C)Sc1nc2c(c(=O)[nH]c(=O)n2C)n1CCc1ccccc1 (stereo unspecified) | 17.4%
O=C(Nc1sc2c(c1C(=O)O)CCC2)c1cccs1 | -13.4%
O=c1c(=O)n(-c2cccc3ccccc23)ccn1Cc1ccccc1 | -3.7%
O=C(Oc1ccc2c(=O)c(Oc3ccc4ccccc4c3)coc2c1)c1cccs1 | 63.9%
O=C(CSc1ncnc2ccccc12)NC1CCCC1 | -10.7%
COc1cc(OC)c(OC)cc1/C=N\NC(=O)CCC1C(=O)NN=C1C (stereo unspecified) | 2.1%
O=C(NCCCn1ccnc1)C(=O)NCC(c1ccco1)N1CCN(c2ccc(F)cc2)CC1 (stereo unspecified) | -5.1%
Cc1ccc(C(=O)NCCc2cc3ccc(C)c(C)c3[nH]c2=O)cc1[N+](=O)[O-] | 3.1%
CCOC(=O)c1nn(-c2ccc(F)cc2)c(=O)c2c(NC(=O)c3ccc(Br)cc3)scc12 | -8.9%
COc1ccc(NC(=O)c2ccc(COc3ccccc3)o2)cc1 | -13.2%
Fc1cccc(Cl)c1CSc1nnc2ccc(-c3ccccn3)nn12 | 15.0%
COc1cccc(NC(=O)CSc2nc(N)c(NC(=O)c3ccc(F)c(F)c3)c(=O)[nH]2)c1 | -4.4%
COc1ccc(NC(=O)c2oc3ccccc3c2NC(=O)/C=C\c2ccccc2)c(OC)c1 | 27.2%
COc1ccc(OCCCC(=O)Nc2nnc(C(C)C)s2)cc1 | 7.9%
COc1ccc([N+](=O)[O-])cc1NC(=O)/C=C/c1c(Cl)cccc1Cl | -2.7%
CCCCc1nc(SCC(=O)c2ccc(OC)cc2)c2c(=O)n(C)c(=O)n(C)c2n1 | -12.2%
CCS(=O)(=O)Nc1cccc(C2=NN(S(=O)(=O)c3ccc(F)cc3)C(c3cccc(F)c3)C2)c1 (stereo unspecified) | 4.4%
O=C(Cc1ccccc1)N=Nc1c(O)[nH]c2ccccc12 | -0.2%
CCn1c(SCC(=O)Nc2cc(C(F)(F)F)ccc2Cl)nc2c(c1=O)SC(C)C2 (stereo unspecified) | 3.5%
COc1cc2c(=O)c(C(=O)c3ccc(Cl)cc3)cn(Cc3ccccc3F)c2cc1OC | 45µg/mL*
COc1ccc(-c2nnc3ccc(SCC(=O)c4ccc(Cl)cc4)nn23)cc1 | -9.3%
N#Cc1ccc(C(=O)Nc2nc(-c3ccc(Cl)c(Cl)c3)cs2)cc1 | 19.2%
Cn1c(=O)[nH]c(=O)c2c1[nH]c(=S)n2Cc1ccc(Cl)cc1 | 25.2%
Cc1ccc(CSc2nc3c(c(=O)[nH]c(=O)n3C)n2Cc2ccccc2)cc1 | -0.8%
N#Cc1c(N)n(CCN)c2nc3ccccc3nc12 | -0.3%
CCn1c(SCC(=O)Nc2nc3ccccc3s2)nc2c(c1=O)SC(C)C2 (stereo unspecified) | 76.0%
COc1ccccc1-n1c(=O)[nH]c2c(C(N)=O)nc(CC(C)C)nc21 | -1.1%
